Mtb MenB inh – blocks the Mycobacterium tuberculosis MenB enzyme; inhibition, %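 (about 12 µg/mL by stock and volumes)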; AID 540299; actives 0.43% (n = 100,000); MenB enzyme assay, absorbance read-out; some hits fall short of the stated cut;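 active = mean of two replicates above 30%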;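 note: 0% = no compound and 100% = wells with inactive enzyme; the first replicate is given; strong numbers were not always called active; inactives centre near -10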
MbtI inh – MbtI salicylate synthase inhibition | P9WFX0 | purified MbtI enzyme, fluorescence intensity read-out | inhibition, %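 (about 17 µg/mL by stock and volumes)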 | actives 0.89% (n = 100,000) | AID 493033;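 active = above 50% in both replicates, above 80% if mildly self-fluorescent; inactive = the rest, strongly fluorescent compounds included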;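 note: 0% = mean of negative and 100% = mean of positive controls; one replicate is shown; some compounds called inactive have numbers as strong as hits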
Target sequence (P9WFX0 whole entry, looked up): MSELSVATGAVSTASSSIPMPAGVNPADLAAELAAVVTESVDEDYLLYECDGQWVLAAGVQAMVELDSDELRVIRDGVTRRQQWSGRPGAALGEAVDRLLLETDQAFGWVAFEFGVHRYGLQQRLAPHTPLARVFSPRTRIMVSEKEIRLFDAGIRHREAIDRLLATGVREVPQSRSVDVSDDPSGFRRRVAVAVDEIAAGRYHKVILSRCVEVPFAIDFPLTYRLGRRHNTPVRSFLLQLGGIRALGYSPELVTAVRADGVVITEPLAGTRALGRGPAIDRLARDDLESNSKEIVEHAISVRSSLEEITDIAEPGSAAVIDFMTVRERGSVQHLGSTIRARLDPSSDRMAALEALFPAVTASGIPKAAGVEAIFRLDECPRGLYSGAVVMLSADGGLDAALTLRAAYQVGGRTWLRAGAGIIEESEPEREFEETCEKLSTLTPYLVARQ
Polio RdRp inh – poliovirus RNA polymerase inhibition; P03300; poliovirus polymerase elongation, fluorescence polarization; active compounds read low; % elongation, % (compound at 16.7 µg/mL); actives 0.66% (n = 150,000); in the data active = % elongation below about 90%; note: some results filed as inactive read as strong as hits
Target sequence (P03300 1749-2209 limits assumed): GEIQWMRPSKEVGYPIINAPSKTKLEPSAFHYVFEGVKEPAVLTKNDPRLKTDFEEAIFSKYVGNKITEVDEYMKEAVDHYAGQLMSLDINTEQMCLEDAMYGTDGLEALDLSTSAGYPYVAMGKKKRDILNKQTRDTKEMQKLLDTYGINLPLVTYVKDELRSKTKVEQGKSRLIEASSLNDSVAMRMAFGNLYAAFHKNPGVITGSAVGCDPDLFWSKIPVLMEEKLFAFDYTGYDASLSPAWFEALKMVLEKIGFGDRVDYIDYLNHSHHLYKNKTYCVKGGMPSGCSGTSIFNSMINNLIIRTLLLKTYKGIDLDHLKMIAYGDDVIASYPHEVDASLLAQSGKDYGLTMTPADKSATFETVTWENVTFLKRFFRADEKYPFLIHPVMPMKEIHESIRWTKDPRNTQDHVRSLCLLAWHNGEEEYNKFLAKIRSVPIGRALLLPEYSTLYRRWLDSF
Polio RdRp inh intensity – also measured in Polio RdRp inh; calls as there; % elongation; measured here: total intensity read-out; formula for this scale not given here;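 total fluorescence in place of polarization; lower means less elongation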
The depositor's hits bear a star; i = inactive; . = no result given. Rows were taken by chance. About 2% of those tested had a hit in this group.

SMILES	Mtb MenB inh	MbtI inh	Polio RdRp inh	Polio RdRp inh intensity
Cn1nc(-c2ccc3c(c2)OCCO3)c2ccccc2c1=O	9.5	2.7	97.0	102.0
C(#Cc1ccccc1)CN1CCCCC1	-16.8	-8.4	105.0	100.0
Cc1ccc(C(=O)N2N=C3c4ccccc4S(=O)(=O)N3C2N(C)C)cc1 (stereo unspecified)	1.5	.	106.0	104.0
COC(=O)C1=CNC=C(C(=O)OC)C1c1ccc(C(F)(F)F)cc1	-61.4	89.1	99.0	102.0
Cc1ccc(C)n1Cc1ccco1	.	-0.2	99.0	98.0
CCOC(=O)CN1C(=S)NC(C)(C)C=C1C	-14.6	12.2	101.0	101.0
FC(F)Oc1ccc(Cl)cc1COc1ncnc2ccccc12	13.9	4.5	97.0	105.0
CCC(NC(N)=O)C(=O)O (stereo unspecified)	5.8	-5.2	99.0	102.0
O=C(Cc1cccc2ccccc12)Nc1nnc(-c2ccncc2)o1	-22.4	-19.4	102.0	107.0
CC(C)(C)n1nc(C2CC2)cc1NC(=O)Nc1ccccc1	-4.8	-12.7	105.0	111.0
COc1ccc(CN2CCN(Cc3cccc4ccccc34)CC2)cc1	-2.6	.	107.0	112.0
CN1CCN(C(=O)c2ccccc2NC(=O)c2ccc(F)cc2)CC1	2.9	.	102.0	113.0
Cc1ccc(I)c(C(N)=O)c1	-12.5	8.8	103.0	103.0
COC(=O)CSc1nc2ccccc2n1CCc1ccccc1	.	-8.2	103.0	110.0
O=C1OC2CC1(O)CC(O)C2O (stereo unspecified)	-21.2	-5.7	102.0	108.0
CCC(Sc1nc(N)cc(=O)[nH]1)C(=O)Nc1ccccc1C#N (stereo unspecified)	32.8	3.0	101.0	104.0
COc1cccc(NC(=O)c2ccc3c(c2)N(C)CCS3)c1	-10.0	-84.3	102.0	106.0
CCn1c(SCc2ccc(C)cc2)nnc1-c1ccc(S(=O)(=O)N2CCOCC2)cc1	4.4	7.5	102.0	101.0
CCc1ccc(C(=O)C23CN4CN(CN(C4)C2)C3)cc1	-0.7	-0.4	101.0	103.0
O=C(CSc1nnnn1C1CC2C=CC1C2)Nc1cccc(C(=O)O)c1 (stereo unspecified)	16.5	3.8	98.0	112.0
NC(=O)C1CCCN(Cc2ccc3ccccc3c2)C1 (stereo unspecified)	-29.0	-0.4	100.0	103.0
COc1cccc(/C=N/NC(=O)C2CCCN(C(=S)NNC3CC4C=CC3C4)CC2)c1O (stereo unspecified)	-33.0	9.9	101.0	95.0
O=C(CN1C(=O)c2ccccc2C1=O)N(Cc1ccccc1)Cc1ccccc1	-32.7	3.3	103.0	103.0
CCCCC(=O)Nc1cccc(NC(=O)c2cc3ccccc3o2)c1	0.5	2.8	104.0	104.0
O=C(Cn1cnc2ccccc21)OCC(=O)N1CCCC1	-15.8	11.6	117.0	121.0
COc1ccc(C2C(C(=O)O)c3ccccc3C(=O)N2C)cc1 (stereo unspecified)	-6.2	-15.1	101.0	103.0
O=c1cc(CNC2CCCCC2)c2ccccc2[nH]1	30.2*	71.8	99.0	104.0
CCN1C(=O)/C(=C/c2ccccc2)SC1=Nc1cccc(C(=O)O)c1	-0.8	1.1	97.0	102.0
CSc1nc2ccccc2n1CC(=O)NC1CCCc2ccccc21 (stereo unspecified)	-17.9	-4.8	104.0	95.0
COC(=O)C1=C(C)NC(=O)NC1c1ccc(C(C)C)cc1 (stereo unspecified)	-9.4	3.5	104.0	102.0

Reprinted from the part before: 2 compounds; new compounds follow.
SMILES	Mtb MenB inh	MbtI inh	Polio RdRp inh	Polio RdRp inh intensity
CSc1nc2ccccc2n1CC(=O)NC1CCCc2ccccc21 (stereo unspecified)	-17.9	-4.8	104.0	95.0
COC(=O)C1=C(C)NC(=O)NC1c1ccc(C(C)C)cc1 (stereo unspecified)	-9.4	3.5	104.0	102.0
COc1ccccc1CNC(=O)c1sc2ncnc(N3CCN(c4ccccc4F)CC3)c2c1C	-4.8	i	105.0	106.0
O=C(c1ccc2c(Cl)c3c(nc2c1)CCC3)N1CCC2(CC1)OCCO2	8.3	-4.9	102.0	104.0
O=C(CSC(=S)N1CCOCC1)Nc1nc(-c2c[nH]c3ccccc23)cs1	7.2	-4.5	100.0	97.0
C/C(CCc1oc2c(Br)cc(C)cc2c1-c1ccc(C)o1)=N\NC(N)=S	-65.0	16.4	104.0	102.0
O=C(CS(=O)(=O)c1ccccc1)Nc1nccs1	-12.1	5.8	103.0	101.0
O=c1[nH]c2ccccc2n1Cc1ccccc1	-22.4	2.8	101.0	101.0
CCOC(=O)C1CCN(c2nnc(N3C(=O)c4ccccc4C3=O)s2)CC1	-2.5	-12.7	103.0	106.0
Cc1cc(C)c2cccc(NC(=S)NC(=O)/C=C/c3ccccc3)c2n1	-4.1	-2.0	102.0	102.0
COc1ccc(C)cc1NC(=S)NCc1cnn(C)c1	-4.2	-7.9	99.0	98.0
CC(C(=O)N1CCCc2ccccc21)n1nc(-c2cccs2)oc1=O (stereo unspecified)	-2.0	-20.2	106.0	102.0
CC(C)C(=O)OCC(=O)Nc1cccc(Cl)c1	-22.1	-1.5	102.0	101.0
O=C(/C=C/c1cccc(C(F)(F)F)c1)NCc1ccco1	-19.2	6.4	107.0	109.0
COc1ccccc1N(CC(=O)N(C)Cc1ccccc1)S(C)(=O)=O	-17.6	2.7	102.0	104.0
COCCn1c(C)cc(C=C2C(=O)N(C)C(=S)N(C)C2=O)c1C	-21.3	9.2	84.0	178.0
Nn1c(COc2ccc(Cl)cc2)nc2ccccc2c1=O	2.3	.	103.0	111.0
O=C(COC(=O)c1ccccc1SCC(=O)N1CCCC1)Nc1ccc2c(c1)OCO2	-8.0	-8.8	102.0	105.0
O=C(NC1CC2CCCC(C1)N2C(=O)Nc1ccccc1)C1CC1 (stereo unspecified)	-35.8	-3.0	104.0	102.0
COC(=O)C1=C(C)NC(C)=C(C(=O)OC)C1C(=O)OCc1nc2cc(C(=O)OC)ccc2c(=O)[nH]1	-9.1	-26.4	96.0	99.0
Cc1c(NC(=O)c2ccc3c(c2)C(=O)N(C)C3=O)cccc1C(=O)O	-16.9	-3.8	101.0	100.0
CS(=O)(=O)Nc1nc2ccccc2[nH]1	-8.0	8.3	100.0	104.0
Cc1csc2nc(CSc3nc4ccc(Cl)cc4c(=O)n3CC(C)C)cc(=O)n12	2.2	4.8	104.0	102.0
O=C(CSc1nsc(SCC(=O)c2ccccc2)n1)c1ccccc1	-22.7	2.7	104.0	104.0
c1ccc(CNCc2ccc3c(c2)OCO3)cc1	0.8	.	104.0	113.0
O=C1c2nccnc2C(=O)N1c1cccc(C(F)(F)F)c1	11.2	10.9	100.0	104.0
Cc1onc(-c2ccccc2)c1C(=O)Oc1ccccc1	-28.7	-8.6	101.0	104.0
Cc1ccc(Cn2c3ccccc3c3nnc(NCC4CCCO4)nc32)cc1 (stereo unspecified)	10.0	-16.3	104.0	105.0
CCC(C)C1COC(c2cccn2Cc2c(C)cc(C)cc2C)=N1 (stereo unspecified)	-28.8	-7.8	99.0	99.0
CC(C)[C@H](N)c1nnc(SCc2cccc(F)c2)o1	-9.4	-5.8	102.0	104.0
O=C(CSc1nccc(=O)[nH]1)N1CCOCC1	-0.1	6.0	103.0	104.0
Cc1nn2c(N)c(C#N)cnc2c1C(N)=O	9.0	i	100.0	102.0
Cc1cccc(OCc2nc(-c3ccc(OCC(N)=O)cc3)no2)c1	-1.6	-4.8	105.0	104.0
O=c1c(Cl)c(NCC2CCCO2)cnn1Cc1ccccc1 (stereo unspecified)	-7.3	.	103.0	106.0
Cc1cc(NCCc2ccccc2)c2nncn2n1	10.1	2.2	101.0	104.0
CCOC(=O)c1cnn(-c2ncc(C(=O)OC)c(C(F)(F)F)n2)c1C(F)(F)F	-3.6	-6.7	105.0	106.0
CC(C)P(=O)(c1cccc(C(=O)O)c1)C(C)C	23.4*	.	102.0	107.0
CSc1ccc(/C=C2\CC/C(=C\C(C)C)C2=O)cc1	-6.5	0.8	103.0	107.0
S=c1nc[nH]c2nc[nH]c12	-4.9	24.6	101.0	104.0
CNC(=O)c1cc(-c2ccc(F)cc2)[nH]c1C	-13.1	-57.1	102.0	100.0
CCCCc1ccc(NS(=O)(=O)CC(C)C)cc1	-13.2	-3.8	99.0	101.0
CCCc1cc(C(=O)Nc2ccc(CC)cc2)no1	-2.1	5.1	101.0	102.0
Cc1ccc(S(=O)(=O)N2CCN(Cn3nc(C)sc3=S)CC2)c(C)c1	14.9	68.2*	106.0	102.0
Clc1ccccc1N=C/C=C1\NN=NC1c1ccc(Br)cc1 (stereo unspecified)	3.4	-3.4	103.0	101.0
CCC1CCCCN1C(=O)/C=C/c1ccccc1Cl (stereo unspecified)	-43.9	-3.4	104.0	101.0
O=C(O)CNC(=O)Nc1ccccc1	6.3	-9.1	101.0	94.0
CC(=O)Nc1c(NC(C)(C)C)c2ccccc2oc1=O	-0.7	6.4	105.0	104.0
Cc1cc(C(=O)CSc2nnc(C(F)(F)F)n2C)c(C)n1Cc1ccco1	-20.6	-0.8	105.0	106.0
CN(C)c1cccc(C(=O)Nc2cc(C(F)(F)F)ccc2-n2ccnc2)c1	.	-19.4	101.0	107.0
O=C(c1ccccc1)C1CN(CC2CCCO2)CCC1(O)c1ccccc1 (stereo unspecified)	.	-5.2	102.0	106.0
CCc1ccc(/C=C2\C(=N)N3N=C(S(C)(=O)=O)SC3=NC2=O)cc1	-30.2	-9.4	104.0	105.0
CNCC1C(C)C=C(C)CC1C (stereo unspecified)	-6.8	-3.7	99.0	103.0
CC(=O)OCN1CCN(COC(C)=O)C1=O	1.6	.	103.0	103.0
Cc1cc(C)n2nc(CC(=O)NCc3ccccc3Cl)nc2n1	8.4	12.3	101.0	105.0
O=S(=O)(Cc1ccccc1Cl)NC1CCCCC1	-30.8	-10.4	101.0	101.0
Brc1cccc(-c2cn3ccccc3n2)c1	-11.3	i	100.0	104.0
CC(C)C(NC(=O)OCc1ccccc1)C(=O)N1CCOCCOCCOCC1 (stereo unspecified)	-3.3	-2.8	104.0	103.0
CCCSc1n[nH]c(-c2ccc(C)cc2)n1	-9.2	31.5	98.0	106.0
COc1ccc2nc(C)cc(OCC(=O)Nc3cc(C)cc(C)c3)c2c1	.	38.0	103.0	107.0
OC(COc1ccccc1Br)CN1CCNCC1 (stereo unspecified)	-8.6	.	107.0	107.0
CC(SCc1ccccc1)C(=O)NC1CCCC1 (stereo unspecified)	-4.5	-21.5	101.0	102.0
CCCCNS(=O)(=O)c1ccc2c(c1)nc(CCC)n2CCCC	-33.3	-1.4	100.0	101.0
Further compounds.
SMILES	Mtb MenB inh	MbtI inh	Polio RdRp inh	Polio RdRp inh intensity
COC(=O)C1CCN(CC(O)COCc2ccc(OC)c(OC)c2)CC1 (stereo unspecified)	7.3	7.1	99.0	105.0
C#CCN1CCS(=O)(=O)CC1	-0.6	2.4	.	.
O=C(O)C1CCN(C(=O)NC2CCCCC2)CC1	-10.4	-14.3	104.0	106.0
CS(=O)(=NC=C(C#N)C#N)c1ccc(Cl)cc1 (stereo unspecified)	-7.4	13.7	102.0	102.0
O=C1CCC(=O)N1CCSSCCN1C(=O)CCC1=O	-18.3	8.2	98.0	104.0
CCNc1nc(-c2cc(C)n(-c3ccc4c(c3)OCCO4)c2C)cs1	-28.7	-4.6	119.0	127.0
O=c1n(-c2cccc(Cl)c2)c(=O)n2n1CCC2	-21.2	.	107.0	102.0
O=C(CSc1nnc(-c2ccncc2)o1)N1CCCC1	11.8	3.6	100.0	100.0
O=C(COc1ccc(-c2nc3ccccc3s2)cc1)N1CCOCC1	-4.1	101.8	103.0	108.0
NC(=O)COc1ccc(C2c3c(oc4ccccc4c3=O)C(=O)N2CCCO)cc1 (stereo unspecified)	-12.0	8.8	99.0	103.0
NC(=O)c1cc2n(n1)C(C(F)(F)F)CC(c1ccc(Cl)cc1)N2 (stereo unspecified)	3.2	-22.3	101.0	101.0
O=C(O)c1ccc(-c2nc3ccccc3[nH]2)cc1	22.0	88.5	100.0	103.0
Cc1ccc(N2C(=O)CC(N3CCC(NS(=O)(=O)c4ccccc4)CC3)C2=O)cc1 (stereo unspecified)	-12.2	18.6	101.0	102.0
CCOc1ccccc1N1CCN(CC(=O)C(C#N)c2nc(C)cs2)CC1 (stereo unspecified)	-7.5	11.6	103.0	106.0

Among those listed so far, eleven contain an NH in an aromatic ring.
SMILES	Mtb MenB inh	MbtI inh	Polio RdRp inh	Polio RdRp inh intensity
CCC(Sc1nc(N)cc(=O)[nH]1)C(=O)Nc1ccccc1C#N (stereo unspecified)	32.8	3.0	101.0	104.0
O=c1cc(CNC2CCCCC2)c2ccccc2[nH]1	30.2*	71.8	99.0	104.0
O=C(CSC(=S)N1CCOCC1)Nc1nc(-c2c[nH]c3ccccc23)cs1	7.2	-4.5	100.0	97.0
O=c1[nH]c2ccccc2n1Cc1ccccc1	-22.4	2.8	101.0	101.0
COC(=O)C1=C(C)NC(C)=C(C(=O)OC)C1C(=O)OCc1nc2cc(C(=O)OC)ccc2c(=O)[nH]1	-9.1	-26.4	96.0	99.0
CS(=O)(=O)Nc1nc2ccccc2[nH]1	-8.0	8.3	100.0	104.0
O=C(CSc1nccc(=O)[nH]1)N1CCOCC1	-0.1	6.0	103.0	104.0
S=c1nc[nH]c2nc[nH]c12	-4.9	24.6	101.0	104.0
CNC(=O)c1cc(-c2ccc(F)cc2)[nH]c1C	-13.1	-57.1	102.0	100.0
CCCSc1n[nH]c(-c2ccc(C)cc2)n1	-9.2	31.5	98.0	106.0
O=C(O)c1ccc(-c2nc3ccccc3[nH]2)cc1	22.0	88.5	100.0	103.0

Source: PubChem BioAssay (ICCB-Longwood Screening Facility, Harvard Medical School)
